# S aureus helic: inhibitors of S. aureus replicative helicase, primary screen, biochemical, fluorescence unwinding readout; replicative DNA helicase (DnaC/DnaB), Staphylococcus aureus; inhibition, %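 (tested at about 80 µM)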; 120,000 tested, 0.05% active; purified S. aureus helicase, fluorescence unwinding assay; about half of the hits fall short of the stated cut;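 active = both duplicates at 50% or more, or one of them with a favoured structure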;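 also: 0% = mean of negative control wells and 100% = mean of positive control wells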
# MgrA-DNA mod: S. aureus MgrA activity modulators, primary screen, biochemical, S. aureus Newman, fluorescence polarization; MgrA-DNA binding; 84,000 tested, 0.13% active; AID 602314, 2012; inhibition, %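 (about 10 µg/mL by stock and volumes)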;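 active = above 50% in either of two replicates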;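 also: 0% = protein plus DNA without compound and 100% = DNA alone without protein; higher means less MgrA bound to DNA so lower polarization; one replicate is shown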
# * = called active by the depositor; · = not tested or not shown.
mol	S aureus helic	MgrA-DNA mod
CC(Sc1nc2ccccc2n1C)C(=O)Nc1ccc(N2CCOCC2)cc1 (stereo unspecified)	8	·
COc1ccc(N2CCN(CCNC(=O)Cn3ncc4c([nH]c5ccc(C)cc54)c3=O)CC2)cc1	19	·
O=S(=O)(c1cccs1)N1CCCCCC1	13	2.5
COC(Cc1nc2ccccc2s1)C(=O)O (stereo unspecified)	-14	·
CC(=O)N[C@@H](Cc1c[nH]c2ccccc12)C(=O)NCc1ccccc1	-2	·
CCc1ccc2c(CC(=O)N(C)Cc3ccccc3OC)coc2c1	-8	·
CC(C)N(C(=O)CNCc1cccs1)C(C)C	6	-38
N#CC1=C(SCC(=O)Nc2ccccc2F)NC2=C(C(=O)CCC2)C1c1ccco1 (stereo unspecified)	1	·
CCOC(=O)N1CCN(C(=O)C(C)Oc2ccc(Br)cc2)CC1 (stereo unspecified)	7	0.3
CC(C)C(=O)Nc1ccc(-c2nc3cc(Cl)ccc3o2)cc1	-12	-0.1
FC(F)Oc1ccc(Cl)c2ccccc12	-11	·
CC1CC(C)CN(CCCNC(=O)c2cccc3c2SCCC3=O)C1 (stereo unspecified)	-7	0.3
CC(N)C1CC2CCC1C2 (stereo unspecified)	-7	·
COC(=O)c1ccc2c(=O)[nH]c(COC(=O)c3c(-c4ccccc4)noc3C)nc2c1	-6	·
CC(C)N(Cc1nnc(-c2ccc(Cl)cc2)o1)C(=O)/C=C/c1ccc(F)cc1	1	·
CCCCN(C)c1nc(CC)c2c(c1C#N)CC(C)(C)OC2	-7	1.0
O=C(CN(C1=NC2CS(=O)(=O)CC2S1)c1ccc(F)cc1)Nc1ccccc1C(F)(F)F (stereo unspecified)	11	-0.6
C=CCNc1nc(C(=O)OCCCn2c(=O)[nH]c3ccccc32)cs1	-4	·
O=C(COC(=O)c1ccc(OC(F)(F)F)cc1)NCc1ccccc1	5	-0.5
CC1CCCN(C(=O)c2ccc3c(c2)C(=O)N(CCC2=CCCCC2)C3=O)C1 (stereo unspecified)	9	·
CCN1C(=O)NC(c2ccc(Cl)cc2)C(C(=O)OCCOc2ccccc2)=C1C (stereo unspecified)	·	-1.4
O=c1[nH]c(CSc2nnc(-c3ccccc3)n2Cc2ccco2)nc2scc(-c3ccccc3)c12	-18	·
Cn1c(=O)c2c(nc(Oc3ccccc3)n2C)n(C)c1=O	5	·
COC(=O)c1nnn(-c2ccccc2)c1C(=O)OC	10	1.9
Cc1ccc(C(=O)c2ccccc2C(=O)OCC(=O)N2CCCC2)cc1	-7	·
CC1CCN(C(=O)COC(=O)/C=C/c2cccs2)CC1	0	-0.9
COc1ccc(NC(=O)c2ccc3nc(C)c(C)nc3c2)cc1	-2	-0.2
FC(F)(F)c1n[nH]c2c1CCCC2	·	-1.8
CCOC(=O)C(O)(c1ccc(N)c(C)c1)C(F)(F)F (stereo unspecified)	·	-1.0
CCn1c2ccccc2c2cc(CN3CCC(N4CCN(CCO)CC4)CC3)ccc21	13	·
COc1cc(Cl)c(C(F)(F)F)cc1NC(C)=O	·	-1.0
O=C1C=CC(=NOC(=O)c2ccc(Cl)cc2)C=C1	0	·
CCS(=O)(=O)c1ccc(O)c(NC(=O)COc2ccc(OC)cc2)c1	-4	0.2
CCN(c1ccccc1)S(=O)(=O)c1cc(C(=O)OC)n(C)c1	1	·
Cc1cccc(NC(=O)C2c3ccccc3C(=O)N3CCc4ccccc4C23)n1 (stereo unspecified)	9	-0.1
O=C(NCc1ccccc1)C1=NS(=O)(=O)c2ccccc2N1	17	·
O=c1nc2sc3ccccc3n2c(=O)n1-c1ccccc1	·	0.6
Clc1ncccc1-c1nc2ccccc2n1Cc1ccccc1	·	-3.1
O=C(Nc1cccnc1)c1[nH]nc2c1CCc1ccccc1-2	-6	·
CC(O)CN(CC(C)O)c1ncnc2c1sc1nc3c(cc12)COC(C)(C)C3 (stereo unspecified)	11	-2.3
Cc1cc(NC2CCCCC2)nc(NCc2ccccc2)n1	-14	0.0
Cc1ccc(CN2CCC(CNC(=O)Nc3ccc4c(c3)OCCO4)C2)cc1 (stereo unspecified)	11	·
CN(C)S(=O)(=O)c1ccc(NC(=O)Cn2ccsc2=N)cc1	6	·
O=C1NCC(O)=C1C=NC12CC3CC(CC(C3)C1)C2	-2	4.7
COc1ccc(C2CCCN2CC(O)COc2ccccc2C(C)C)cc1 (stereo unspecified)	-7	·
CCOc1nc(NC(=O)NS(=O)(=O)c2cccc(Cl)c2)nc(-c2ccccc2)n1	-3	1.0
Cc1cc(C)cc(CC(C(=O)O)C(C)C(=O)O)c1 (stereo unspecified)	2	·
Cc1ccc(N=Cc2cc3ccccc3[nH]c2=O)cc1	-12	-0.6
Cc1oc2c(F)c(F)c(F)c(F)c2c1C#N	12	·
O=C(CSC1CCCC1)c1ccccc1Cl	16	-0.2
CCc1sc(C(=O)NN)cc1C	-6	·
CCCCN(C)C(=O)c1ccc(Sc2ccc(Cl)cc2)c(NC(C)=O)c1	10	0.5
O=C(CS(=O)(=O)Cc1c(F)cccc1Cl)Nc1ccc(F)c(Cl)c1	·	0.4
NC(=O)CN1CCN(Cc2ccc3c(c2)OCO3)CC1	-1	2.8
OCCNCC(O)Cn1ccc2ccccc21 (stereo unspecified)	-5	-2.0
O=COCC1OC(OC=O)C(Nc2ccccc2)C(OC=O)C1OC=O (stereo unspecified)	1	1.3
CCOC1=NC(C(F)(F)F)(C(F)(F)F)N=C2Sc3ccccc3N12	16	-3.5
O=C(NCc1cccnc1)c1ccc(S(=O)(=O)N2CCCCC2)cc1	8	2.1
COc1ccccc1-c1nc(SC)n[nH]1	7	0.6
Cc1cccc(C(CC(=O)N2CCCC2)c2ccccc2)c1O (stereo unspecified)	10	-0.1

# Five entries out of the list above, arranged by the value under MgrA-DNA mod, descending:
mol	S aureus helic	MgrA-DNA mod
NC(=O)CN1CCN(Cc2ccc3c(c2)OCO3)CC1	-1	2.8
O=c1nc2sc3ccccc3n2c(=O)n1-c1ccccc1	·	0.6
O=C(CS(=O)(=O)Cc1c(F)cccc1Cl)Nc1ccc(F)c(Cl)c1	·	0.4
CC(C)C(=O)Nc1ccc(-c2nc3cc(Cl)ccc3o2)cc1	-12	-0.1
Cc1ccc(N=Cc2cc3ccccc3[nH]c2=O)cc1	-12	-0.6

# Carrying on.
mol	S aureus helic	MgrA-DNA mod
Cc1onc(-c2ccccc2)c1C(=O)Nc1nnc(N2C(C)CCCC2C)s1 (stereo unspecified)	11	·
COc1cc(C(=O)NN)cc(OC)c1OC	·	-3.9
COc1cccc(-n2cnnc2SCC(=O)c2ccc(CNC(=O)C(C)(C)C)s2)c1	-12	·
CCc1c(C)sc(NC(=O)C2c3ccccc3Oc3ccccc32)c1C(=O)OC	8	2.6
FC(F)(F)c1ccc2nc(SCc3ccc(Br)cc3)[nH]c2c1	·	-0.1
COc1ccc(C(CNC(=O)c2ccc(OCc3c(C)noc3C)cc2)N2CCCC2)cc1 (stereo unspecified)	-8	·
CNC(=S)N/N=C/c1ccccc1Cl	·	-1.4
CCn1c(SCCn2c(=S)n(C)c3ccccc32)nc2ccccc21	8	-0.4
CN1C/C(=C\c2ccc(N3CCOCC3)cc2)C(=O)/C(=C/c2ccc(N3CCOCC3)cc2)C1	-98	·
COc1ccc(-c2csc(Nc3ccccc3)n2)cc1OC	-4	·
CCN(CC(=O)Nc1cccc(F)c1)CC(=O)Nc1ccccc1OC	-16	·
CCOC(=O)c1c(C2CC2)csc1NC(=O)CSc1nnc(C(CC)N(C)C)o1 (stereo unspecified)	-9	·
CC(C)C(=O)N1CCC(c2nc(-c3ccc(F)cc3)no2)CC1	-5	3.4
O=S(=O)(Nc1ccc(N2CCCCC2)cc1)c1ccc(F)cc1	·	-0.9
CCOc1nc(-c2ccccc2)ccc1-c1noc(-c2ccccc2F)n1	19	0.7
O=S1CCCCC1	-12	4.8
Cc1ccc(-c2nc(CSCC(=O)NCCN3CCCC3)c(C)o2)cc1	-8	·
COC(=O)C1=C(C)N=c2s/c(=C\c3ccc(OC(C)=O)cc3OC(C)=O)c(=O)n2C1c1cccs1 (stereo unspecified)	·	-0.1
C=CCNC(=O)C1CC(c2ccc(OC)cc2)=NO1 (stereo unspecified)	7	·
CN(C)C(=O)/C=C/c1ccc(Cl)cc1	-15	·
CCOC(=O)C1=C(C)NC(=O)C1CC(=O)Nc1ccc(C(=O)OCC)cc1 (stereo unspecified)	·	-1.4
O=C(Nc1cccc2nsnc12)c1cc(Cl)ccc1NS(=O)(=O)c1cccc2nsnc12	·	-1.7
CC(=O)Oc1cccc(OC(C)=O)c1OC(C)=O	-1	·
O=C1c2ccccc2C(=O)N1CCCC(=O)N(Cc1nc(-c2ccccc2)no1)C1CCCCC1	-1	3.5
COc1ccc(-c2nnc3n2N=C(N)CS3)cc1OC	3	·
O=C(O)CCC(=O)Nc1cccc(C(=O)N2CCCCC2)c1	-1	15
O=C(OCc1cc(=O)n2ccsc2n1)C1CCCCC1	8	·
O=C(O)CNC(=O)C1CC1	-4	·
CC(C)(C)C(/C=C/c1ccc(Cl)cc1Cl)n1nnnc1C(C)(C)N1CCOCC1 (stereo unspecified)	1	2.7
NS(=O)(=O)c1nn2cc(-c3ccccc3)nc2s1	-13	1.1
CCc1nc2cccnc2n1-c1ccc(CC(=O)NC(C)CC)cc1 (stereo unspecified)	3	·
Cc1ccc(C2C3=C(CC(C)(C)CC3=O)Nc3onc(C)c32)cc1 (stereo unspecified)	-8	·
CCOC(=O)N1CCN(C(=O)CSc2nc3c(cnn3-c3ccc(C)cc3)c(=O)[nH]2)CC1	7	2.1
O=C(O)C1CSC(c2ccncc2)=N1 (stereo unspecified)	-12	3.4
COc1ccc(NC(=O)CSc2ncccc2C(=O)Oc2ccccc2Cl)cc1OC	7	3.0
Cc1cc(F)ccc1NS(=O)(=O)c1cc2[nH]c(=O)c(=O)[nH]c2cc1C	10	·

# Entries of single compounds from above. Order of values: S aureus helic | MgrA-DNA mod
# Cc1ccc(C2C3=C(CC(C)(C)CC3=O)Nc3onc(C)c32)cc1 (stereo unspecified) is entered as -8 | ·
# O=C(O)CCC(=O)Nc1cccc(C(=O)N2CCCCC2)c1 is entered as -1 | 15
# O=C(O)CNC(=O)C1CC1 is entered as -4 | ·

# Following part
mol	S aureus helic	MgrA-DNA mod
Cc1ccc2oc(=O)c3cnn(CC(=O)N4CCCCC4C)c3c2c1 (stereo unspecified)	9	-1.4
c1csc(-c2nc3ccccc3s2)c1	·	12
COc1cc2c(c(O)c1OC)C(=O)C(OC)CCC2 (stereo unspecified)	8	·
CCOC(=O)c1cc(=O)c2ccccc2o1	·	0.8
O=C(NCC1CCCO1)C1CCCN(C(=O)N2CCOc3ccccc32)C1 (stereo unspecified)	19	·
CCOC(=O)c1ccc(N2CCCCC2)c(NS(=O)(=O)c2cc(Cl)c(Cl)cc2Cl)c1	·	-2.6
O=C(NC1CCS(=O)(=O)C1)c1sc2ccccc2c1Cl (stereo unspecified)	-15	·
Cc1ccc2c(c1)C(=O)CC(c1cc(Br)cc3c1OCOC3)O2 (stereo unspecified)	-21	·
c1ccc(-c2csc(-c3cccs3)n2)cc1	·	-2.8
O=C(COC(=O)CSc1ncnc2sccc12)Nc1nnc(-c2ccccc2)o1	-15	·
Cc1ccc(C2=C/C(=C/c3ccc(-c4cccc(C(=O)O)c4)o3)C(=O)O2)cc1	-95	2.3
CNC(=O)C1CCN(c2nc3ccccc3n3cccc23)CC1	-5	-0.9
O=C(Nc1ccccc1)c1ccc(=O)[nH]n1	8	·
COc1cccc2c1c(NC(=O)Nc1ccc(F)cc1F)nn2C	28	·
COc1ccc(S(=O)(=O)c2n[nH]n3c2nc(=O)c2ccccc23)cc1	-24	·
COc1ccc(-n2nc(C(=O)NCC(=O)Nc3cccc(OC)c3)c3ccccc3c2=O)cc1	7	0.2
COc1ccc(CNC(=O)CNCc2ccco2)cc1OC	-5	·
CCOC(=O)NC(=S)Nc1ccc(C(C)(C)C)cc1	·	1.0
Cn1c(=O)cc(SCC(=O)NCCN2CCOCC2)c2ccc(Cl)cc21	13	1.1
C=CCNC(=O)c1ccc(CN2CCOCC2)cc1	-5	0.2
CC(=O)NC1=NC(=O)/C(=C/c2ccc(-c3ccc4c(c3)COC4=O)o2)S1	-2	9.8
O=C(CN1C(=O)c2ccccc2C1=O)Oc1cccc2cccnc12	15	·
CCOC(=O)c1sc(S(=O)(=O)Cc2ccccc2)c2c1CC(C)(C)CC2=O	·	-0.4
O=C(O)CSCC(=O)Nc1ccc2c(c1)OCO2	·	-1.5
Brc1ccc(-c2cnc3n2CCCC3)cc1	-12	·
CCSc1nccc(C(F)(F)F)c1C(=O)Nc1ccc(Cl)cc1	·	-4.5
NCCOc1ccc(Cl)cc1	5	-0.5
O=S(=O)(c1ccc2[nH]c3c(c2c1)CCCC3)N1CCCc2ccccc21	-2	1.0
O=C(OC1CCOC1=O)c1ccc(-c2nc3ccccc3s2)s1 (stereo unspecified)	-10	·
O=C(CSCc1ccco1)Nc1nccs1	10	·
Cc1ccc(CN2CCN(N=Cc3ccc(Br)s3)CC2)c(C)c1	28	·
CCCC(=O)Nc1sc2c(c1C#N)CC(C)(C)NC2(C)C	4	-4.2

# Source: PubChem BioAssay

# These rows are one share of the data; the hit share may differ from the screen's.
